HPGD block = qHTS Assay for Inhibitors of HPGD (15-Hydroxyprostaglandin Dehydrogenase) | Potency, µM, without a hit: top-dose activity change, negative = inhibition, usual class: inhibitors | AID 894, 2007 | hit rate 4.3% among 150,000 | 15-hydroxyprostaglandin dehydrogenase [NAD(+)] (Homo sapiens), P15428 | purified HPGD, NADH fluorescence kinetic, PGE2 substrate; active = well fitted inhibition curve with a large enough effect (not every such curve was filed as active); inconclusive = small, poorly fitted or top-dose-only effect, or another doubt; inactive = no such curve, though single readings can be large or run the other way;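 also: top concentration of the series not given in the record; plate controls included wells without enzyme; inactives centre near -10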
Target sequence (P15428 whole entry, looked up): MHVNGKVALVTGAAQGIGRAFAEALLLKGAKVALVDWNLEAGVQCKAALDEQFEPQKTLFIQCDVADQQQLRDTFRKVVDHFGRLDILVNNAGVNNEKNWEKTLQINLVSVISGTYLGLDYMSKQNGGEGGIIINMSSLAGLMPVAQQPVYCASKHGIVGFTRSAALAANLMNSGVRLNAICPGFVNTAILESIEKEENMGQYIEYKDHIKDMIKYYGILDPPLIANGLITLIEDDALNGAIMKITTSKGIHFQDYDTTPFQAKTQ
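20 nM HPGD preincubated 15 min at room temperature with compound in 50 mM Tris-HCl pH 8, 0.01% Tween 20. Started with 1 mM NAD+ and 30 uM prostaglandin E2; NADH fluorescence (360/450 nm) read 5 times over 30-s intervals, last minus first.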
* = called active by the depositor; & = joins results of further samples. % is scaled to controls: 0 for no effect and ±100 for the full control effect; potency is read from the fitted curve at half-maximal effect.

How did O=C(Nc1nc2ccc(Cl)cc2s1)c1ccc(N2CCCCC2)c([N+](=O)[O-])c1 do in these assays?
HPGD block: -11%

How did COC(=O)COc1cccc2c(=O)n(CC(=O)NCCc3ccccc3)ccc12 do in these assays?
HPGD block: -25%

Results for N#Cc1ccc(-c2ccc(F)cc2)nc1Sc1ccc(F)cc1 ?
HPGD block: -6%

What do the screens show for `S=C(NC1CCCCC1)N1CCN(Cc2ccccc2)CC1`?
HPGD block: -9%

Results for COc1cc(NC(=O)c2cc3ccccc3o2)c(OC)cc1Cl ?
HPGD block: inconclusive

Results for CSc1ccc(/C=C/C(=O)c2ccc(NC(=O)C(C)C)cc2)cc1 ?
HPGD block: inconclusive

What do the screens show for `COc1ccc(NC(=O)CN2CCN(CC(=O)Nc3ccc4c(c3)OCO4)CC2)cc1`?
HPGD block: -5%

How did CSc1cccc(NC(=O)OC2CCCCCCCCCCC2)c1 do in these assays?
HPGD block: -4%

Results for O=C(Nc1ccc(N2CCCCC2)cc1)c1ccccc1 ?
HPGD block: -10%

Results for COc1ccc(/C=C/C(=O)c2ccc(OC)cc2O)cc1 ?
HPGD block: -11%

Results for Cc1cccc(Cn2c(Cc3ccccc3)nc3ccccc32)c1 ?
HPGD block: -19%

What do the screens show for `CN(c1ccccc1C(=O)Nc1ccc(S(=O)(=O)N2CCOCC2)cc1)S(=O)(=O)c1ccccc1`?
HPGD block: -23%

Filtered by structure: the compounds so far with four or more nitrogen atoms
How did O=C(Nc1nc2ccc(Cl)cc2s1)c1ccc(N2CCCCC2)c([N+](=O)[O-])c1 do in these assays?
HPGD block: -11%

What do the screens show for `COc1ccc(NC(=O)CN2CCN(CC(=O)Nc3ccc4c(c3)OCO4)CC2)cc1`?
HPGD block: -5%

New compounds follow.
Results for CCOc1cccc(C(=O)N(Cc2ccc(F)cc2)C2CCS(=O)(=O)C2)c1 (stereo unspecified) ?
HPGD block: -11%

What do the screens show for `COc1ccc(NC(=O)Nc2ccc(OC)cc2)cc1`?
HPGD block: -5%

How did CC(C)CC(=O)Nc1ccc(-c2cn3ccsc3n2)cc1 do in these assays?
HPGD block: 25µM*

Results for O=C(CSc1nc2ccccc2n1CC(=O)N1CCOCC1)N1CCCC1 ?
HPGD block: -6%

Results for Cc1c(C(=O)Nc2ccccc2)sc2nc[nH]c(=O)c12 ?
HPGD block: -20%

What do the screens show for `CC(C)[C@H](NC(=O)c1ccccc1)C(=O)OCC(=O)NCCc1ccc(F)cc1`?
HPGD block: -12%

What do the screens show for `CCOC(=O)C(NC(=O)NCc1ccc(OC)cc1)(OCC)C(F)(F)F` (stereo unspecified)?
HPGD block: -12%

What do the screens show for `CC(CN1CCCC1)OC(=O)COc1ccccc1` (stereo unspecified)?
HPGD block: -11%

How did Cc1ccc(S(=O)(=O)N2CCN(S(=O)(=O)c3ccccc3)C2)cc1 do in these assays?
HPGD block: 2%

Results for Cc1cccc(NC(=S)NC2CCCC2)c1 ?
HPGD block: inconclusive

What do the screens show for `C=CCn1c(SCC(=O)N2CC(=O)Nc3ccccc32)nc2scc(-c3ccccc3)c2c1=O`?
HPGD block: -13%

What do the screens show for `COc1ccc(/C(O)=C2/C(=O)C(=O)N(CCCN(C)C)C2c2ccccc2)cc1Cl` (stereo unspecified)?
HPGD block: -10%

Results for CC1(N2CCOCC2)C(=O)c2ccccc2C1=O ?
HPGD block: -15%

How did O=C(NCC1CCCO1)c1cccc(F)c1 (stereo unspecified) do in these assays?
HPGD block: 22µM*

Results for COc1ccc(-c2[nH]ncc2/C=C(\C#N)C(=O)NC2CC2)cc1 ?
HPGD block: -23%

How did COc1ccc(Cn2nnnc2C(c2cccs2)N2CCSCC2)cc1 (stereo unspecified) do in these assays?
HPGD block: -6%

What do the screens show for `CSC1=N/C(=C\c2cccnc2)C(=O)N1c1ccccc1`?
HPGD block: -26%

What do the screens show for `CCOC(=O)c1[nH]c(C)c(/C=N/O)c1C`?
HPGD block: inconclusive

How did COc1ccc(CN2CCN(C(=O)CC(C)C)CC2)c2ccccc12 do in these assays?
HPGD block: -10%

How did CC(NC(=O)OCc1ccccc1)C(=O)OCN1C(=O)c2ccccc2C1=O (stereo unspecified) do in these assays?
HPGD block: -10%

How did N#Cc1c(SCC(N)=O)nc2c(c1-c1ccc(O)cc1)CCCC2 do in these assays?
HPGD block: -23%

What do the screens show for `O=C(O)CN1C(=O)SC(Nc2ccccc2C(=O)O)C1=O` (stereo unspecified)?
HPGD block: -26%

Results for O=S(=O)(N/N=C\c1cn(-c2ccccc2)nc1-c1ccccc1)c1ccccc1 ?
HPGD block: -7%

What do the screens show for `CC(C)OC(=O)/C(C#N)=C/c1ccc(-c2ccc(SC(F)F)cc2)o1`?
HPGD block: inconclusive

How did CCC(C)NC(=O)C(NS(=O)(=O)c1cccc2nsnc12)c1ccccc1 (stereo unspecified) do in these assays?
HPGD block: -6%

What do the screens show for `Brc1c(CSc2nncn2-c2ccccc2)nc2sccn12`?
HPGD block: -13%

How did CCCC(=O)Nc1ccc(C(=O)NNC(=S)NC(=O)c2cccs2)cc1 do in these assays?
HPGD block: -21%

How did Cc1c(C(=O)Nc2ccncc2)oc2ccccc12 do in these assays?
HPGD block: -25%

Results for CCn1nc(C)c(NC(=O)/C=C/c2ccc(OC)c(COc3ccc(Br)cc3)c2)c1C ?
HPGD block: -23%

Results for CCOc1ccccc1C1NC(=O)NC(C)=C1C(=O)OCc1ccco1 (stereo unspecified) ?
HPGD block: 0%

How did CN1C(=O)N(C)C(NC(=O)Nc2ccccc2)C1NC(=O)Nc1ccccc1 (stereo unspecified) do in these assays?
HPGD block: -7%

Results for COc1ccc(/C=N/NC(=O)CNC(=O)C2COc3ccccc3O2)cc1OC (stereo unspecified) ?
HPGD block: -23%

What do the screens show for `Cc1cc(Cl)ccc1OCC(=O)NCCCn1ccnc1`?
HPGD block: -9%

What do the screens show for `Cc1ccc2nc(NC(=O)CSc3nc4ccccc4o3)sc2c1`?
HPGD block: -13%

What do the screens show for `CCc1ccc(N2CC(C(=O)NCc3ccco3)CC2=O)cc1` (stereo unspecified)?
HPGD block: -12%

Results for Cc1nn(Cc2ccccc2Cl)c(C)c1C(=O)NCCN1C(=O)S/C(=C\c2ccccc2)C1=O ?
HPGD block: -4%

Results for Cn1c(=O)c(=O)n(C)c2cc(S(=O)(=O)Nc3ccc(OC(F)(F)F)cc3)ccc21 ?
HPGD block: -18%

What do the screens show for `CCOC(=O)c1sc(N/N=C/c2ccccc2)nc1C`?
HPGD block: 14µM*

What do the screens show for `COCCN(C(=O)c1ccco1)c1nnc(-c2ccc(OC)c(OC)c2)s1`?
HPGD block: -10%

Results for CCc1c(O)nc(SC2CC(=O)N(c3ccccc3)C2=O)[nH]c1=O (stereo unspecified) ?
HPGD block: -2%

How did CCOc1ccc(CN2C(=O)c3ccccc3C2=O)cc1C(=O)Nc1nnc(SCC)s1 do in these assays?
HPGD block: inconclusive

How did Cc1cccc(NC(=O)C(=O)NCc2ccccn2)c1 do in these assays?
HPGD block: -16%

What do the screens show for `CC1CCN(C(=O)CSc2nnc(CNC(=O)c3ccco3)o2)CC1`?
HPGD block: 3%

Results for CCN(CC)C(=O)CSc1nc2ccccc2c(=O)n1-c1ccccc1OC ?
HPGD block: -7%

What do the screens show for `COc1ccc(NC2c3ccccc3C(=O)N2c2ccccn2)cc1Cl` (stereo unspecified)?
HPGD block: -12%

What do the screens show for `O=C(Cn1nc(C(F)(F)F)c2c1CCC2)Nc1ccccc1C(F)(F)F`?
HPGD block: -10%

How did Cc1c(-c2nc(N)nc(C3CC3)c2C)nc(N)nc1C1CC1 do in these assays?
HPGD block: -5%

What do the screens show for `Cn1cc(C(=O)N/N=C/C=C/c2ccccc2)ccc1=O`?
HPGD block: -6%

How did CN(C(=O)c1cccnc1)c1nnc(-c2ccccn2)s1 do in these assays?
HPGD block: 0%

What do the screens show for `CCC(=O)NCCCCCCCCCNC(=O)CC`?
HPGD block: -16%

What do the screens show for `CCN1C(=O)N[C@@H](c2ccccc2)C(C(=O)OC)=C1C`?
HPGD block: 1%

What do the screens show for `COc1ccccc1-c1cc(C(=O)NCCN2CCOCC2)no1`?
HPGD block: -29%

Results for COCC(=O)N(C)c1nnc(-c2ccccn2)s1 ?
HPGD block: inconclusive

What do the screens show for `COCCNS(=O)(=O)c1ccc(OCC(=O)OC)c(Cl)c1`?
HPGD block: -10%

How did Cc1cc(NC(=O)C2CCCCC2C(=O)O)no1 (stereo unspecified) do in these assays?
HPGD block: -2%

What do the screens show for `CCOC(=O)C1=C(C)C(c2cccc(Oc3ccccc3)c2)NC(=S)N1` (stereo unspecified)?
HPGD block: -10%

What do the screens show for `O=C(NCC(=O)N1CCN(c2ncccn2)CC1)c1cccs1`?
HPGD block: -9%

What do the screens show for `O=C1CSC(=NC2CCCCC2)N1`?
HPGD block: -8%

How did CC1(C)O[C@@H]2O[C@H]([C@@H]3COC(C)(C)O3)[C@H](N)[C@H]2O1 do in these assays?
HPGD block: -7%

How did O=C(CCN1C(=O)COc2ccccc21)NCc1cccs1 do in these assays?
HPGD block: -2%

Quoted at random: two compounds from above
Results for COc1ccc(/C=N/NC(=O)CNC(=O)C2COc3ccccc3O2)cc1OC (stereo unspecified) ?
HPGD block: -23%

What do the screens show for `COc1ccc(NC2c3ccccc3C(=O)N2c2ccccn2)cc1Cl` (stereo unspecified)?
HPGD block: -12%

Further compounds
How did COc1cccc(N(CC(=O)O)S(=O)(=O)c2ccccc2)c1 do in these assays?
HPGD block: -8%

How did O=C(CCc1ccc(Oc2cc([N+](=O)[O-])cc([N+](=O)[O-])c2)cc1)Nc1cccc(Cl)c1 do in these assays?
HPGD block: -10%

What do the screens show for `COc1ccccc1N1CCN(C(=O)c2oc3ccc(F)cc3c2C)CC1`?
HPGD block: 0%

How did CCc1c(C)n([O-])c2c([n+]1=O)CCCCC2 do in these assays?
HPGD block: -4%

Results for COc1ccc(-n2nc([N+](=O)[O-])c(=NCCc3ccc(Cl)cc3)n2O)cc1 ?
HPGD block: -10%

What do the screens show for `Cc1ccc(SCCC(=O)NCC2CCCO2)cc1` (stereo unspecified)?
HPGD block: 16µM*

How did CN1C(=O)N(C)C2C1N(CN1CCCCC1)C(=O)N2CN1CCCCC1 (stereo unspecified) do in these assays?
HPGD block: -1%

How did Nc1ccccc1C#CCCCCO do in these assays?
HPGD block: -10%&-16%

Results for Cc1cscn1 ?
HPGD block: 3%

Results for CC1CC(C)CN(Cc2nc(N)nc(Nc3ccccc3)n2)C1 (stereo unspecified) ?
HPGD block: -3%

Results for Cc1c(C(=O)Nc2ccc(F)cc2)c2ccccn2c1CCc1ccncc1 ?
HPGD block: inconclusive

What do the screens show for `CCCC(=O)Nc1ccc2c(c1)nc(CCNC(=O)c1ccccc1)n2C`?
HPGD block: 0%

Sorted by count of non-hydrogen atoms (low to high): part of the list above.
Results for Cc1cscn1 ?
HPGD block: 3%

How did COc1cccc(N(CC(=O)O)S(=O)(=O)c2ccccc2)c1 do in these assays?
HPGD block: -8%

Results for CC1CC(C)CN(Cc2nc(N)nc(Nc3ccccc3)n2)C1 (stereo unspecified) ?
HPGD block: -3%

Reprinted from the listing for reference:
How did COc1cccc(N(CC(=O)O)S(=O)(=O)c2ccccc2)c1 do in these assays?
HPGD block: -8%

How did O=C(CCc1ccc(Oc2cc([N+](=O)[O-])cc([N+](=O)[O-])c2)cc1)Nc1cccc(Cl)c1 do in these assays?
HPGD block: -10%

What do the screens show for `COc1ccccc1N1CCN(C(=O)c2oc3ccc(F)cc3c2C)CC1`?
HPGD block: 0%

(cont.)
Results for O=C(NCCN=C1NS(=O)(=O)c2ccccc21)c1ccncc1 ?
HPGD block: -3%

Results for O=C1OCCC1Sc1nc2cc(Cl)ccc2s1 (stereo unspecified) ?
HPGD block: -9%

Results for CCCCNCCCOc1cccc(Cl)c1Cl ?
HPGD block: -6%

How did O=C(CSc1nnc(Cn2c(=O)sc3ccccc32)n1-c1ccccc1)NCC1CCCO1 (stereo unspecified) do in these assays?
HPGD block: -24%

How did O=C(CNC(=O)Cn1ccc2ccccc2c1=O)NCCCN1CCN(c2cccc(Cl)c2)CC1 do in these assays?
HPGD block: -18%

Results for CC(NC(=O)CCCCCN1C(=O)c2ccccc2C1=O)c1ccc2c(c1)CCCC2 (stereo unspecified) ?
HPGD block: -3%

How did CCOC(=O)c1sc(=S)n(-c2cccc(OC)c2)c1N do in these assays?
HPGD block: 28µM*

What do the screens show for `Cc1ccc2nc(-c3ccc(N4C(=O)CC(N5CCC(C(N)=O)CC5)C4=O)cc3)sc2c1` (stereo unspecified)?
HPGD block: -15%

Results for Cc1cccc(NC(=S)NCCN2CCOCC2)c1 ?
HPGD block: -17%

How did N#Cc1c(NC(=O)C2CC(c3ccccc3Cl)=NO2)sc2c1CCC2 (stereo unspecified) do in these assays?
HPGD block: inconclusive

What do the screens show for `O=C(c1ccco1)N1CCC2(CC1)CCN(c1ncccn1)CC2`?
HPGD block: -17%

What do the screens show for `C=CCn1c(SCC(=O)Nc2ccc(-c3nc4ccc(C)cc4s3)cc2)nnc1-c1ccncc1`?
HPGD block: inconclusive

How did Cc1cc(N2CCC(C)CC2)n2ncc(-c3ccccc3)c2n1 do in these assays?
HPGD block: inconclusive

How did NC(Cc1cccc(-c2ccccc2CP(=O)(O)O)c1)C(=O)O (stereo unspecified) do in these assays?
HPGD block: -12%

What do the screens show for `COc1ccc(N2CCC(CNC(=O)Nc3cccc(OC)c3)C2)cc1` (stereo unspecified)?
HPGD block: -8%

How did Cc1n[nH]c(=O)nc1NCC1CCCO1 (stereo unspecified) do in these assays?
HPGD block: 28µM*

What do the screens show for `COC(=O)c1c(C)[nH]c(C(=O)C(C)Sc2nnc(-c3cc(OC)c(OC)c(OC)c3)o2)c1C` (stereo unspecified)?
HPGD block: 0%

How did Cc1ccc(S(=O)(=O)NC(C)C(c2cccs2)N2CCOCC2)cc1 (stereo unspecified) do in these assays?
HPGD block: -1%

Screening data from PubChem.

Only part of the results is shown; rates above refer to the full screens.
